Screens from PubChem.
A488 autofl – compound autofluorescence in A488 spectral region; compound autofluorescence, A488 spectral region, dye equivalency; active compounds read high; max dye equivalency, M; hit rate 0.1% among 59,000; AID 591; active = above 10 nM dye equivalent; inconclusive = 1 to 10 nM; inactive = 1 nM or less; about half of its hits are not listed in these tables;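 note: highest value over a series up to 38 µM; compound alone in buffer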
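Autofluorescence read at ex 480/em 540 nm after 15 min RT in 100 mM Tris pH 8.0; compound signal normalized to A488 standard series on each plate, reported as dye-equivalent concentration at each test concentration.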
TSHR ag – TSH receptor (human) agonism; hit rate 0.48% among 73,000; Potency, µM (highest dose often 57.1 µM), for inactives: at the highest dose activation, actives largely listed as activators; P16473; HEK293-CNG-TSHR cells (CNG channel as cAMP sensor), membrane potential dye, cAMP; active = well fitted activation curve of enough size with the parental cells flat; inconclusive = any curve in the parental cells; inactive = parental cells flat and receptor cells flat or falling; note: potency is the fitted concentration of half-maximal effect; % of control where 0% means no effect; weak receptor curves with flat parental cells got no call and are not listed
Target sequence (P16473 whole entry, looked up): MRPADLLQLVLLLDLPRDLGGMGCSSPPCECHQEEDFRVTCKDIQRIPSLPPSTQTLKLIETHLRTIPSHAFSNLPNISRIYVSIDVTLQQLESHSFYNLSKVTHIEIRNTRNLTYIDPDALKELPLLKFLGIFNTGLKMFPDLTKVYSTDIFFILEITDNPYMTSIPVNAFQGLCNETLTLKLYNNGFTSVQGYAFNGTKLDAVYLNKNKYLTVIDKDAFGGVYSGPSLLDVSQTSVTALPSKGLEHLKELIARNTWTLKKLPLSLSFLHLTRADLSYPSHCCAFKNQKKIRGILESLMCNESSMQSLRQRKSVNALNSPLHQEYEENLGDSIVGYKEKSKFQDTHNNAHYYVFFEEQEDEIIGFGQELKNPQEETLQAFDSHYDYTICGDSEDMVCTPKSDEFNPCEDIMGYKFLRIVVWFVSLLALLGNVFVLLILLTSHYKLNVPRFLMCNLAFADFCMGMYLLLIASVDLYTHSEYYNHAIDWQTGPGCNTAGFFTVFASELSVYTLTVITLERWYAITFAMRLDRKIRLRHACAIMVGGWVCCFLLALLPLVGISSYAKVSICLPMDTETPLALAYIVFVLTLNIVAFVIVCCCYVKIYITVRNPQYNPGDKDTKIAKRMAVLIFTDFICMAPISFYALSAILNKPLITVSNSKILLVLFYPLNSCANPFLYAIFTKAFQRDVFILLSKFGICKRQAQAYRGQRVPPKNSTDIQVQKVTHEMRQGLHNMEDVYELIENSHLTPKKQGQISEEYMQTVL
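cAMP rise detected as CNG-channel membrane depolarization by fluorescent dye (emission 590 nm), 30 min after compound, following 60 min dye loading containing 100 uM RO 20-1724 at room temperature. Cells: TSHR/CNG HEK 293, with parental CNG HEK 293 as control.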
Resorufin fluor – compounds fluorescent in resorufin spectral region; max dye-equivalent concentration, M; hit rate 0.04% among 59,000; AID 588; Compound fluorescence, resorufin region 547/598 nm, buffer; active compounds read high; active = above 10 nM dye equivalent; inconclusive = 1 to 10 nM; inactive = 1 nM or less; a few of its hits are not listed in these tables; note: highest value over a series up to 38 µM
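Read-out: intrinsic compound fluorescence at ex 547/em 598 nm after 15 min at RT in pH 8.0 Tris (100 mM). Values expressed as resorufin-equivalent concentration from per-plate standard series.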
A647 autofl – compound autofluorescence in A647 spectral region. Compound fluorescence, A647 channel (570/671 nm), Tris buffer. 59,000 tested, under 10 active. max dye-equivalent concentration, M; active means above 1 µM dye equivalent; inconclusive means 0.1 to 1 µM; inactive means 0.1 µM or less;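 note: values scaled relative to a standard on each plate; highest value over a series up to 38 µM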
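Fluorescence read (570 nm ex, 671 nm em) after 15 min RT incubation of compounds in 100 mM Tris buffer, pH 8.0; values expressed as dye-equivalent concentration against a six-point A647 standard series on each plate.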
AID923 – qHTS Assay for Allosteric/Competitive Inhibitors of Caspase-1: Spectroscopic Profiling in AFC Spectral Region; hit rate 1.1% among 75,000; compound fluorescence, AFC spectral region (405/520 nm); almost no hit is shown here; Potency, µM (top dose mostly 57.5 µM), for the others: top-dose fluorescence increase, most hits filed as activators; AID 923, 2007; active = well fitted activation curve with a large enough effect; inconclusive = small, poorly fitted or top-dose-only effect;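 note: potency is the fitted concentration of half-maximal effect; 0% is about no effect; scaled to a free AFC standard on each plate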
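Compound autofluorescence profiled at 405 nm ex/520 nm em during kinetic caspase 1 run (50 nM enzyme, 5 uM Ac-WEHD-AFC, HEPES pH 7.5, 10 mM DTT). Titration up to 57 uM; baseline from regression intercept, normalized to AFC standard curve.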
* hit, by the source's call; i = inactive; ? = inconclusive; nt = no result given; & = joins results of further samples; [ ] = remark or other dose.

SMILES | A488 autofl | TSHR ag | Resorufin fluor | A647 autofl | AID923
COc1ccc(S(=O)(=O)N2CCCC(C(=O)N3CCOCC3)C2)cc1C (stereo not drawn) | i | 4% | i | 1e-09 | 0.1%
O=C(O)CSc1nnc(C2CC2)n1-c1ccccc1 | i | 1% | i | 2.1e-08 | 1.5%
Cc1cc(C)c(NC(=O)CS(=O)CC(=O)Nc2cccnc2)c(C)c1 (stereo not drawn) | i | 5% | i | 2.6e-09 | 1.3%
O=C(CCC1CC(=O)Nc2ccccc21)NCc1cccnc1 (stereo not drawn) | nt | -1% | nt | nt | 3.3%
N#CCCn1c(=O)c(CCc2ccccc2)nc2cnc(Oc3cccc(Cl)c3)nc21 | i | ? | i | 2.9e-08 | 5.5%
O=C(O)CCCC(=O)N1CCN(C(c2ccccc2)c2ccccc2)CC1 | i | nt | i | 2.6e-08 | nt
Cc1ccc(CSc2nc3c(c(=O)[nH]2)CCC3)cc1 | nt | 22% | nt | nt | -0.3%
O=C(CCCN1C(=O)c2ccccc2C1=O)N1CCN(c2ccccn2)CC1 | i | -2% | i | 4.8e-08 | 2.1%
COC(=O)C1CCN(c2cc(=O)n(Cc3ccc(F)cc3)c(=O)[nH]2)CC1 | i | -3% | i | 4.5e-08 | 1.1%
CC(C)N(C#N)c1nc(N2CCOCC2)nc(N2CCOCC2)n1 | i | -3%[11.4 µM] | i | 9.1e-09 | -1.4%
COc1cccc(-c2nn(-c3ccccc3)cc2C(=O)O)c1 | i | -3% | i | 1e-09 | -1.7%
COc1ccc(C(=O)Oc2ccc3c(c2)OCO3)cc1OC | nt | 21% | nt | nt | -2.6%
CC(C)(C)n1nc2c(c1NC(=O)c1ccc(S(=O)(=O)N3CCCC3)cc1)CSC2 | i | 1%[11.4 µM] | i | 1e-09 | 1.3%
CN1CCN(C2=C(Cl)C(=O)N(C3CCCCC3)C2=O)CC1 | i | -1% | i | 2.4e-09 | 3.7%
O[C@@](CCN1CCCCC1)(c1ccccc1)C1CCCCC1 | i | ? | i | 1e-09&1e-09 | -1.4%[25.7 µM]
Cn1c(=O)c2c3c(sc2n2c(SCc4ccccc4)nnc12)CCCC3 | i | nt | i | 1.5e-09 | nt
O=C(O)c1cc(NS(=O)(=O)c2ccc3ccccc3c2)ccc1O | nt | 23% | nt | nt | -2.9%
CCOC(=O)C1CCCN(C(=O)c2ccccc2Oc2ccccc2)C1 (stereo not drawn) | nt | ? | nt | nt | -1.0%
Cc1ccc(CNC(=O)c2cc3c(=O)n4ccccc4nc3n(Cc3ccco3)c2=N)cc1 | i | nt | i | 1e-09 | nt
O=S(=O)(CCc1nnc(-c2ccccc2)o1)c1ccc2ccccc2c1 | nt | 8% | nt | nt | 0.6%
C(=NCCCN1CCOCC1)c1ccc2c(c1)OCO2 | nt | 2% | nt | nt | -0.4%
O=C(CSc1nc2ccccc2s1)c1sc2sc3ccccc3[n+]2c1O | i | 2%[11.4 µM] | ? | 2.6e-08 | -5.8%[11.5 µM]
CCOC(=O)N/N=C1/C[C@@H](O)[C@@H](O)[C@@H]2[C@@H]3C(=O)N(C4CCCCC4)C(=O)[C@H]3CC[C@H]12 | nt | -2%[11.4 µM] | nt | nt | -1.3%[11.5 µM]
CCN(CC)S(=O)(=O)c1ccc(NC(=O)Cn2cnc3ccccc3c2=O)cc1 | i | 13% | i | 1e-09 | 0.6%
COCCn1c(C)cc(C(=O)CSc2nncn2-c2ccccc2)c1C | i | -1% | i | 4.8e-09 | 2.0%
CN(c1ccc(C(=O)NCc2cccnc2)cc1)S(C)(=O)=O | i | 5% | i | 1e-09 | 0.3%
Cc1cc(C(=O)Nc2c(C)n(C)n(-c3ccccc3)c2=O)c(C)o1 | i | 4% | i | 1.2e-08 | -1.1%
CCOc1cc(CN2CCN(C(=O)c3ccco3)CC2)ccc1OC | nt | 3% | nt | nt | 9.0%
CCn1c(SCC(=O)Nc2ccccc2N2CCOCC2)nnc1-c1ccccc1O | i | -4% | i | 3.7e-08 | -1.5%
Cc1cc2nnc(SCC(=O)NCc3cccs3)n2c(N)n1 | i | 12% | i | 1e-09 | 3.1%
CCOC(=O)c1c(NC(=O)COc2ncnc3sccc23)sc2c1CCC2 | i | 5% | i | 3.5e-08 | 0.6%
NCCSS(=O)(=O)CCN | i | 1%[11.4 µM] | i | 3.2e-08 | 0.9%[11.5 µM]
Cn1c(=O)oc2cc(S(=O)(=O)N3CCCC(C(=O)N4CCc5ccccc5C4)C3)ccc21 (stereo not drawn) | nt | -3% | nt | nt | -2.2%
O=c1ccc2ccccc2o1 | nt | 3% | nt | nt | -1.7%
COc1cccc(-n2c(SCC#N)nnc2-c2cnccn2)c1 | i | 0% | i | 3.3e-08 | -0.8%
CC(Oc1cc(C(F)(F)F)cc(C(F)(F)F)c1)C(=O)NC(N)=O (stereo not drawn) | i | -10% | i | 1e-09 | -1.3%
CCN(CC)CCN=C1CCCc2ccccc2N1 | nt | 3% | nt | nt | -0.6%
O=C1OC2CC3CC1CC(O)(C3)C2 (stereo not drawn) | i | 0% | i | 3.1e-08 | -1.0%
CCC(C)(C)n1nnnc1CN(Cc1ccco1)Cc1cc2cc3c(cc2[nH]c1=O)OCO3 | i | 25µM* | i | 6.2e-08 | -0.2%
CC(C)=NO[C@@H](C)c1cn([C@@H]2COC[C@@H]2O)nn1 | nt | 4%[11.4 µM] | nt | nt | 1.4%[11.5 µM]
Cc1ccc(OCC(=O)Nc2ccc(O)c(C(=O)O)c2)cc1C | i | 9% | i | 5.6e-08 | 1.7%
Cc1cccc(OCC(O)CN2CCN(C3CCCCC3)CC2)c1 (stereo not drawn) | i | ? | i | 3.6e-08 | -0.4%
COc1cccc(Cn2c(=O)c(CCc3ccccc3)nc3cnc(N4CCOCC4)nc32)c1 | i | -1% | i | 2.4e-08 | 7.7%
COc1ccccc1N(CC(=O)NCCSc1ccccc1)S(C)(=O)=O | nt | 14%[11.4 µM] | nt | nt | 0.7%
COc1cccc(C(=O)SC2=NCCS2)c1 | i | 3% | i | 2.6e-08 | 1.2%
O=C(c1ccco1)N1CCC[C@@]2(CCN(Cc3nccs3)C2)C1 | i | ? | i | 2.6e-08 | -0.2%
CC(=O)Nc1ccc(S(=O)(=O)NCc2cn3ccsc3n2)cc1 | i | -1%[11.4 µM] | i | 1e-08 | 0.2%
O=c1[nH]c(NCc2ccccc2)nc2c1CCC2 | i | -11% | i | 1.4e-09 | 1.7%
Cc1ccc(NCN2C(=O)c3ccccc3C2=O)c(C)c1 | i | 7% | i | 2.3e-09 | 0.4%
Nc1[nH]ncc1C(=O)Nc1cccc(C(F)(F)F)c1 | i | -11% | i | 2.4e-08 | 0.7%
Cc1ccc(S(=O)(=O)C(CCC(=O)N2CCOCC2)S(=O)(=O)c2ccc(C)cc2)cc1 | i | -8% | i | 1e-09 | -0.1%
O=S(=O)(O)c1nc2ccccc2n1Cc1ccc(Cl)cc1Cl | i | nt | i | 9.5e-09 | nt
COC(=O)c1cc(NC(=O)CC2C(=O)NCCN2C(=O)c2ccccc2)cc(C(=O)OC)c1 (stereo not drawn) | i | ? | i | 2.6e-08 | 0.0%
c1csc(-c2ccc3ccccc3n2)c1 | i | 19% | i | 7.7e-09 | 0.0%
Cc1cccc(-n2nnnc2SCC(=O)c2cc(C)n(CC3CCCO3)c2C)c1 (stereo not drawn) | i | ? | i | 2.5e-08 | 0.5%
CCCCc1c2ccccc2nc2[nH]c3ccccc3c12 | nt | ? | nt | nt | -3.9%
COc1ccccc1NC(=O)CN(Cc1ccco1)C(=O)c1ccc(-n2nc(C)cc2C)cc1 | nt | 13% | nt | nt | -2.0%
CCC1CCCCN1C(=O)CSc1nc(N)c(NC(=O)c2ccco2)c(=O)[nH]1 (stereo not drawn) | nt | -3% | nt | nt | -1.8%
O=C(NCc1ccc(F)cc1)C1CCN(C(=O)NCc2ccccc2)CC1 | i | ? | i | 1e-09 | 2.8%
c1ccc(N2CCN(c3nc(NCc4ccco4)c4ccccc4n3)CC2)cc1 | i | nt | i | 5.5e-09 | nt

In the list so far, three contain a Cl atom.
SMILES | A488 autofl | TSHR ag | Resorufin fluor | A647 autofl | AID923
N#CCCn1c(=O)c(CCc2ccccc2)nc2cnc(Oc3cccc(Cl)c3)nc21 | i | ? | i | 2.9e-08 | 5.5%
CN1CCN(C2=C(Cl)C(=O)N(C3CCCCC3)C2=O)CC1 | i | -1% | i | 2.4e-09 | 3.7%
O=S(=O)(O)c1nc2ccccc2n1Cc1ccc(Cl)cc1Cl | i | nt | i | 9.5e-09 | nt

Additional compounds.
SMILES | A488 autofl | TSHR ag | Resorufin fluor | A647 autofl | AID923
Cc1nnc(NC(=O)c2ccc(S(=O)(=O)N(C)Cc3ccccc3)cc2)o1 | i | -4% | i | 1e-09 | 0.7%
COCCn1nnnc1C(c1cccc(C#N)c1)N1CCCCCC1 (stereo not drawn) | i | 14% | i | 1e-09 | -0.9%
CCOCC(=O)Nc1c(C(=O)Nc2ccccc2OC)oc2ccccc12 | i | ? | i | 1.9e-08 | 0.3%
N#C/C(=C1/CCCCCN1)c1nc2ccccc2[nH]1 | i | 4% | i | 6.7e-09 | 0.3%
O=C(Nc1cccc(F)c1)N1CC2(CCN(C(=O)c3cccc(F)c3)CC2)C1 | i | -2% | i | 6.2e-09 | 1.1%
COc1cc(C(=S)N2CCCC2)cc(Cl)c1O | i | 5% | i | 1.5e-08 | -2.4%
NC1(C(=O)O)CCC1 | nt | -2% | nt | nt | -1.4%
CCOC(=O)C1CCN(C(=O)CC(C)c2ccccc2)CC1 (stereo not drawn) | i | 13% | i | 1e-09 | 0.3%
COc1cccc(OC)c1C(=O)N1CCN(Cc2ccncc2)CC1 | i | -6% | i | 4.7e-09 | 0.6%
COc1nc(-c2ccc(Cl)cc2)ccc1-c1noc(-c2ccncc2)n1 | i | 9% | i | 1.4e-08 | 5.0%
Cc1cc(NC(=O)CSC2=Nc3ccccc3C3=NC(Cc4ccccc4)C(=O)N23)n[nH]1 (stereo not drawn) | i | 16% | i | 1.4e-08 | 1.8%
CC(C)(C)C1CCc2onc(C(=O)N3CCOCC3)c2C1 (stereo not drawn) | i | 10% | i | 1.3e-08 | -1.9%
COc1nc(OC)nc(N2CCC(C(=O)NC3CCCCCC3)CC2)n1 | i | 5% | i | 1e-09 | 0.4%
COc1ccccc1Cn1c(=S)[nH]c2cc(C(=O)N3CCN(C)CC3)ccc2c1=O | i | -4% | i | 1e-09 | 1.9%
CCCc1nc2n[nH]c(N)c2c2c1CCCC2 | i | nt | i | 7.3e-08 | nt
O=c1oc2ccccc2c(O)c1/C=N/c1ccccn1 | i | -2% | i | 1.2e-09 | -1.2%
Cc1ccc(CN(C)C(=O)C2CCCN2C(=O)c2cccs2)o1 (stereo not drawn) | i | 14% | i | 6.7e-08 | 0.1%
O=C(NCCN1CCN(c2ccccc2)CC1)C1CCN(S(=O)(=O)N2CCOCC2)CC1 | i | 2%[11.4 µM] | i | 1e-09 | -0.2%
CC(C)Cn1cnc2c(c1=O)c1nc3ccccc3nc1n2Cc1ccc2c(c1)OCO2 | i | nt | i | 2.3e-08 | nt
O=C(Nc1nc(-c2cc(Cl)sc2Cl)cs1)c1cccs1 | i | ? | i | 3e-09 | -0.3%
CCc1c(C)[nH]n(-c2ccc(Oc3ccccc3)c(S(=O)(=O)O)c2)c1=O | nt | 7% | nt | nt | -0.9%
C/C(=C\C(=O)c1ccccc1)Nc1cccc(O)c1 | nt | -10%[11.4 µM] | nt | nt | 2.8%
Cc1ccc(NC2=CC(=O)CC(C)(C)C2)c(N)c1 | i | 5% | i | 1.3e-09 | 0.5%

Copied from the listing, 2 compounds:
SMILES | A488 autofl | TSHR ag | Resorufin fluor | A647 autofl | AID923
O=C(NCCN1CCN(c2ccccc2)CC1)C1CCN(S(=O)(=O)N2CCOCC2)CC1 | i | 2%[11.4 µM] | i | 1e-09 | -0.2%
CC(C)Cn1cnc2c(c1=O)c1nc3ccccc3nc1n2Cc1ccc2c(c1)OCO2 | i | nt | i | 2.3e-08 | nt

These rows are one share of the data; rates above refer to the full screens.
